hNpr1 antagonist – Natriuretic polypeptide receptor (hNpr1) antagonism - Primary qHTS; Potency, µM (highest dose often 46.3 µM), without a hit: at the highest dose activity change, negative = inhibition, most hits filed as inhibitors; AID 1347048, 2019; 76,000 compounds, 1.6% hits; HEK293 hNpr1 GloSensor cGMP, ANP-stimulated luminescence; Atrial natriuretic peptide receptor 1 (Homo sapiens), P16066; active = well fitted inhibition curve with a large enough effect; inconclusive = small, poorly fitted or top-dose-only effect; inactive = no such curve, though single readings can be large or run the other way;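 note: nearly all actives have a fitted effect of over 60% in size; nearly all hits also lower the signal before the agonist is added; a reference antagonist and vehicle were the controls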
Target sequence (P16066 whole entry, looked up): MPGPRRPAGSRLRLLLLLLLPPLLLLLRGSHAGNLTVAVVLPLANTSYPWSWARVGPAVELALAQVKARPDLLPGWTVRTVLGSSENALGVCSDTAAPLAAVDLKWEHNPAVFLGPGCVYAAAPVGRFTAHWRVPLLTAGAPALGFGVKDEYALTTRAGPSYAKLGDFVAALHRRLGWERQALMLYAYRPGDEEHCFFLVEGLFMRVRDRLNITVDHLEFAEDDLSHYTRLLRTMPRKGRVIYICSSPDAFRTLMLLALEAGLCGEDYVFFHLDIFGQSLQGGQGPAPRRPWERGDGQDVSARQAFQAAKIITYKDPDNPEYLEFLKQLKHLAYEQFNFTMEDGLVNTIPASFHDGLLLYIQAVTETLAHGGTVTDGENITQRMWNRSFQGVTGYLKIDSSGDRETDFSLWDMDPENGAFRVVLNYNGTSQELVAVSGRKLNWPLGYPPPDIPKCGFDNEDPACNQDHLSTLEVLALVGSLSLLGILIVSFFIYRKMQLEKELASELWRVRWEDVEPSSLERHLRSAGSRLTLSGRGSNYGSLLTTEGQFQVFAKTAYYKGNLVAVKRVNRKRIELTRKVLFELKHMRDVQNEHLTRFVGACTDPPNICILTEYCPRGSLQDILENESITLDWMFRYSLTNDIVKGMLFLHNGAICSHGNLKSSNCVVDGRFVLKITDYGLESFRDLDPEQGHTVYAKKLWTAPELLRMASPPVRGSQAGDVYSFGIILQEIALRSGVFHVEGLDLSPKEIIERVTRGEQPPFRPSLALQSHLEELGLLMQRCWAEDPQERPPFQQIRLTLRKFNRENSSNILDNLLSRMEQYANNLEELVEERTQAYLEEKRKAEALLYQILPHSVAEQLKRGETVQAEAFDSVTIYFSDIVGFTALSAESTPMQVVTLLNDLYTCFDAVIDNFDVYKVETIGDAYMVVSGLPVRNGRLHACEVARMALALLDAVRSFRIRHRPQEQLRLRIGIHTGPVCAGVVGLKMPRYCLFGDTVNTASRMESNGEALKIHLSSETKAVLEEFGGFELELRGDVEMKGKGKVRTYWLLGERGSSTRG
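HEK293 cells stably expressing human Npr1 and cGMP GloSensor pGS-40F, loaded 2 h with 2% GloSensor reagent, given compound 30 min at room temperature. Luminescence read before and 20 min after 0.1 nM hNppA.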
An asterisk follows results filed as active; & = joins results of further samples; [ ] = another dose, or the depositor's remark. % is set by controls: 0 for no effect and ±100 for the full control effect; potency is the fitted concentration of half-maximal effect.

COc1ccc(N2CC(C(=O)N3CCC(C(=O)NC(C)C)C3)NC2=O)cc1 (configuration not stated) was read as hNpr1 antagonist 21%&2%.
Screening COC(=O)[C@@H](C)NC(=O)[C@H]1CN(S(=O)(=O)c2ccccc2)CCN1S(=O)(=O)c1ccccc1 returned hNpr1 antagonist -4%.
`O=c1ncn(Cc2ccccc2)c2ccc(-c3ccccc3)nc12` gave hNpr1 antagonist -4%[70.6 µM].
CC(C)CC(=O)Nc1ccnn1C1CCN(C(=O)c2scc3c2CCCC3)CC1 was read as hNpr1 antagonist -13%.
`CCNC(=O)Nc1ccc(OCC(=O)NCc2ccc(C)cc2)nc1` gave hNpr1 antagonist 2%.
Screening COc1ccc(-c2nnc([C@H]3CCN(Cc4ncc[nH]4)C3)o2)cc1 returned hNpr1 antagonist -1%[70.6 µM].
Cc1ccccc1[C@H]1[C@@H](C(=O)N(C)Cc2cccnc2)C[C@@](C)(C(=O)O)N1C was read as hNpr1 antagonist 0%.
`Cc1cc(C(=O)N2CC(C(=O)NCCc3ccncc3)C3(CCOCC3)C2)nn1C` (configuration not stated) gave hNpr1 antagonist -1%.
`CC(C)CCN1CCc2[nH]nc(C(=O)N(C)C)c2C1` gave hNpr1 antagonist 0%.
Screening O=C(c1cccnc1)N1CCC(N2C(=O)C(OCC3CC3)C23CCCCC3)CC1 (configuration not stated) returned hNpr1 antagonist 1%.
Screening O=C(NC1CCCCC1)C1CCN(C(=O)N2CC3CC(C2)[C@H]2CCCC(=O)N2C3)CC1 (some centres not stated) returned hNpr1 antagonist 8%.
`COc1ccccc1C(=O)NC1CCCc2c1[nH]c1c(Cl)cccc21` (configuration not stated) gave hNpr1 antagonist 5%.
`COCCNC(=O)CCc1cc2cc(OC)ccc2[nH]c1=O` gave hNpr1 antagonist 3%.
Screening O=C(NCCCc1ccccc1)c1cc2n(n1)CC(c1ccc3c(c1)OCO3)OC2 (configuration not stated) returned hNpr1 antagonist -23%.
`COc1ccc(-c2ccc3ncc(Nc4cccc(F)c4)n3n2)cn1` gave hNpr1 antagonist -16%[70.6 µM].
Screening COc1cccc(NC(=O)NC[C@H]2O[C@H](Cc3cc(CN4CCOCC4)on3)CC[C@@H]2O)c1 returned hNpr1 antagonist 6%.
O=C(c1ccco1)N1CCCCC1c1nc(C2CC2)n[nH]1 (configuration not stated) was read as hNpr1 antagonist 5%.
Screening O=C(Nc1ccccc1)c1nc2c(o1)CCN(Cc1cccs1)CC2 returned hNpr1 antagonist 7.9µM*.
For CCn1ccc2c(CN3CCC4(CCCN(CCOC)C4=O)C3)cccc21 (configuration not stated) the results were hNpr1 antagonist -2%.
For O=C(Nc1ccccc1)O[C@@H]1CO[C@H]2[C@@H]1OC[C@@H]2NC(=O)c1ccc2c(c1)OCO2 the results were hNpr1 antagonist 32µM*.
Cc1cc(C(=O)Nc2ccc([C@H]3OCC(=O)N[C@@H]3CO)cc2)nn1C was read as hNpr1 antagonist -6%[70.6 µM].
O=C(NCc1ccccc1)C1CCC(=O)N1C1CCNCC1 (configuration not stated) was read as hNpr1 antagonist 3%.
Screening Cc1cccnc1CNC(=O)[C@H]1C[C@@H](C(=O)O)N(C)[C@H]1c1cccc(Cl)c1 returned hNpr1 antagonist -4%.
`CCCc1noc(-c2cccn3c(CNC(=O)c4cccnc4)nnc23)n1` gave hNpr1 antagonist -2%.
`Cc1nn2c(N3CCC(O)C3)cc(-c3ccccc3)nc2c1C` (configuration not stated) gave hNpr1 antagonist 4%.
For Cc1ccc(CNC(=O)c2nnn3cc(-c4ccc(F)cc4)[nH]c(=O)c23)cc1 the results were hNpr1 antagonist 0%.
Cn1nccc1CN1CCCC(c2nn(-c3ccc(Cl)cc3)c(=O)[nH]2)C1 (configuration not stated) was read as hNpr1 antagonist 7%.
`COc1ccc(CCC(=O)N2CCC(Cc3nc(-c4ccc(OC)cc4)no3)CC2)cc1` gave hNpr1 antagonist 11µM*.
For CCOc1ccc(S(=O)(=O)N2CCN(C3(CC)CCN(S(C)(=O)=O)C3)CC2)cc1 (configuration not stated) the results were hNpr1 antagonist 1%.
`O=C(CNC(=O)c1cnccn1)NC1CCCc2c1[nH]c1c(Cl)cccc21` (configuration not stated) gave hNpr1 antagonist 0%.
`O=C(NC1CCCCC1)C1CN(S(=O)(=O)c2cc(F)ccc2F)CC12CCOCC2` (configuration not stated) gave hNpr1 antagonist 2%.
For Cc1ccc(C(=O)N2CCCC(n3cc(-c4nc(C(C)C)no4)nn3)C2)s1 (configuration not stated) the results were hNpr1 antagonist 0%.
COc1ccccc1C(CC(=O)NCC(C)C)c1cn(C)c2ccccc12 (configuration not stated) was read as hNpr1 antagonist inconclusive.
Screening O=C1CC2CCCC(C1)N2C(=O)c1ccc(Cl)cc1 returned hNpr1 antagonist -1%[70.6 µM].
Screening O=C(NCc1ccncc1)c1cn(C2CNC2)nn1 returned hNpr1 antagonist 2%.
COc1cc(OC)cc(C(=O)N2CCCC3(C2)NC(=O)N(Cc2ccc(C)cc2)C3=O)c1 (configuration not stated) was read as hNpr1 antagonist 1%.
Cc1ccc(S(=O)(=O)N2CCN(C3CCN(CCC(C)C)C3=O)CC2)cc1Cl (configuration not stated) was read as hNpr1 antagonist 4%.
Screening COCCc1nncn1C1CCN(C(=O)c2cccc(Br)c2)CC1 returned hNpr1 antagonist 1%.
For COc1ccc(CCC(=O)NCc2nnc3c(-c4nc(C5CC5)no4)cccn23)cc1 the results were hNpr1 antagonist 2%.
`Cc1c(-c2ccccc2)[nH]c2c(CNC(=O)C3=NN(C)C(=O)CC3)cc(Cl)cc12` gave hNpr1 antagonist -29%.
O=C([C@H]1C[C@H](Oc2cccnc2)CN1S(=O)(=O)c1ccc(F)cc1)N1CCOCC1 was read as hNpr1 antagonist 8%.
Cn1nccc1CN1CCCC2(CN[S+](=O)([O-])c3ccccc3N2)C1 (configuration not stated) was read as hNpr1 antagonist 14%.
`CCCc1noc(-c2nc(-c3ccc4c(c3)OCO4)no2)n1` gave hNpr1 antagonist -16%.
Screening CC(=O)N1CC2(CCN(Cc3ncccn3)CC2)CC1C(=O)O (configuration not stated) returned hNpr1 antagonist 2%.
CN1C(=O)C(c2ccccc2)CC12CCN(C(=O)Cc1ccccc1)CC2 (configuration not stated) was read as hNpr1 antagonist -3%.
For COc1ccccc1N1CCN([C@H]2[C@@H]3OC[C@@H](O3)[C@@H](NCc3ccco3)[C@@H]2O)CC1 the results were hNpr1 antagonist 1%[70.6 µM].
For COc1cccc(OCc2nc(C(=O)N(C)Cc3cccnc3)co2)c1 the results were hNpr1 antagonist 10%.
Screening COC(=O)c1cn([C@H]2CO[C@H]3[C@@H]2OC[C@@H]3NC(=O)c2ccc(N(C)C)cc2)nn1 returned hNpr1 antagonist 1%[70.6 µM].
For CNC(=O)CC1CCOC2(CCN(C(=O)Cn3nc(C(F)(F)F)cc3C)CC2)C1 (configuration not stated) the results were hNpr1 antagonist 7%.
c1coc(-c2ccnc3ncnn23)c1 was read as hNpr1 antagonist 0%.
For Nc1ncccc1CN1CCC2(CC1)CC(c1ccccc1)C(=O)N(C1CC1)C2 (configuration not stated) the results were hNpr1 antagonist 0%.
COc1ccc(C(=O)N2CCc3ccc(C(=O)NCc4ccccc4OC)cc32)cc1 was read as hNpr1 antagonist -23%.
Screening O=C1CO[C@H]2CCN(Cc3nccs3)CC[C@@H]2N1Cc1ccccc1 returned hNpr1 antagonist -9%[70.6 µM].
`Fc1ccc(Cc2nc3nccc(-c4cccs4)n3n2)cc1` gave hNpr1 antagonist -2%.
O=C1CCCCN1CC(=O)N1CCCC(c2ccccc2)(c2ccccc2)C1 was read as hNpr1 antagonist 2%.
Screening Cc1cccc(C(=O)Nc2cccc(-c3ccc(N4CCN(C)CC4)nn3)c2)c1 returned hNpr1 antagonist -15%.
Screening COc1ccc(-c2nc(C3CC3)nc3c2CCN(Cc2cccnc2)CC3)cc1 returned hNpr1 antagonist 0%.
`CC(C)[C@@H]1CN(C(=O)c2ncn[nH]2)C[C@H]1NS(=O)(=O)N(C)C` gave hNpr1 antagonist 5%.
CCOC(=O)N1CCN(C(=O)c2cc(Cn3nc(C)cc3C)[nH]n2)CC1 was read as hNpr1 antagonist 5%.
Screening Cc1nnc2n1CCC(N(C)C(=O)CCc1nc3ccccc3s1)CC2 (configuration not stated) returned hNpr1 antagonist 0%.
Screening Cc1cc(=O)n(CC(=O)Nc2ccc(Br)cc2)c(N(C)Cc2ccccc2)n1 returned hNpr1 antagonist inconclusive.
`CN(C)S(=O)(=O)N1CCC(F)(c2nc(-c3ccccc3)no2)CC1` gave hNpr1 antagonist inconclusive.
O=C(c1ccncc1)N1CCC2(CC1)CC(N(C(=O)c1ccccc1)C1CC1)CCO2 (configuration not stated) was read as hNpr1 antagonist -2%.
O=C(c1ccco1)N1CC(c2nnc(-c3ccncc3)o2)C2(CCOCC2)C1 (configuration not stated) was read as hNpr1 antagonist -4%.
For COc1ccc(-c2noc([C@@H](C)NC(=O)c3ccc4c(c3)OCO4)c2C(=O)O)cc1 the results were hNpr1 antagonist -1%[70.6 µM].
Screening CC1(NC(=O)C2CC2)CN(c2ccc(OC(F)(F)F)cc2)C1 returned hNpr1 antagonist inconclusive.
`CCOc1ccccc1C(=O)N1CCC(N2C(=O)CCC2C(=O)NC(C)C)CC1` (configuration not stated) gave hNpr1 antagonist 1%.
`O=C1CCC2(CCN(Cc3ccc4[nH]ccc4c3)CC2)CN1CCc1ccccc1` gave hNpr1 antagonist 2%.
Screening COc1ncccc1-c1cc(-c2ccccc2)nc2c(C)noc12 returned hNpr1 antagonist -9%[70.6 µM].
Screening Cc1ccccc1-c1nc(-c2c(C)noc2C)cc2cc(CO)oc12 returned hNpr1 antagonist 0%[70.6 µM].
`COc1ccc(C2Cn3nnc(-c4noc(-c5sccc5C)n4)c3CO2)cc1` (configuration not stated) gave hNpr1 antagonist -8%.
COCCN[C@H]1[C@@H]2OC[C@@H](O2)[C@@H](NCc2ccc3c(c2)OCO3)[C@@H]1O was read as hNpr1 antagonist -4%[70.6 µM].
`O=C(Nc1ccccc1)N[C@H]1CO[C@H]2[C@@H]1OC[C@H]2OC(=O)Nc1ccccc1` gave hNpr1 antagonist -3%[70.6 µM].
`CCc1cccc(NC(=O)Cn2c(Nc3cc(C)cc(C)c3)nc(C)cc2=O)c1` gave hNpr1 antagonist -2%.
CCn1cc(S(=O)(=O)N2C[C@@H](Oc3ccccc3)C[C@H]2C(=O)N2CCOCC2)cn1 was read as hNpr1 antagonist 3%.

A draw from above in order of length of the SMILES, low to high:
Screening O=C1CC2CCCC(C1)N2C(=O)c1ccc(Cl)cc1 returned hNpr1 antagonist -1%[70.6 µM].
COc1ccccc1C(CC(=O)NCC(C)C)c1cn(C)c2ccccc12 (configuration not stated) was read as hNpr1 antagonist inconclusive.
Screening Cc1cc(=O)n(CC(=O)Nc2ccc(Br)cc2)c(N(C)Cc2ccccc2)n1 returned hNpr1 antagonist inconclusive.
Screening Cc1cccnc1CNC(=O)[C@H]1C[C@@H](C(=O)O)N(C)[C@H]1c1cccc(Cl)c1 returned hNpr1 antagonist -4%.
Screening COC(=O)[C@@H](C)NC(=O)[C@H]1CN(S(=O)(=O)c2ccccc2)CCN1S(=O)(=O)c1ccccc1 returned hNpr1 antagonist -4%.

Additional entries follow.
For CCO[C@H]1CN(C(=O)c2cc(-c3ccc(OC)cc3)n[nH]2)C[C@@H]1O the results were hNpr1 antagonist 3%.
`CCCn1cnnc1CNC(=O)CC1C(=O)NCCN1Cc1ccoc1` (configuration not stated) gave hNpr1 antagonist 3%.
`CC(=O)c1cc(CN2CCC(c3[nH]ncc3-c3ccccc3C)CC2)n(C)c1` gave hNpr1 antagonist -24%.
Screening O=C(CC1CCN(C(=O)c2cccc(F)c2)C1)NCc1ccccc1 (configuration not stated) returned hNpr1 antagonist 3%.
Screening Cc1cc(C)c(CNC(=O)c2nc(-c3cccc(F)c3)cc3c2ccn3C(C)C)c(=O)[nH]1 returned hNpr1 antagonist -7%[70.6 µM].
Screening C[C@@H](NS(C)(=O)=O)c1onc(-c2ccccc2)c1C(=O)O returned hNpr1 antagonist 0%[70.6 µM].
Screening CC(C)NC(=O)[C@@H]1C[C@H](N)CN1S(=O)(=O)c1cccc2nsnc12 returned hNpr1 antagonist 3%.
For O=C(Cc1cccnc1)N1CCC(N2CC(OCC3CC3)C23CCCCC3)CC1 (configuration not stated) the results were hNpr1 antagonist 2%.
`Cc1cccc(C(=O)N2CCCC(c3nc(C4CCOCC4)no3)C2)c1` (configuration not stated) gave hNpr1 antagonist 22%.
For O=C(CCC[C@@H]1[C@H]2CCCN3CCC[C@@H](CN1C(=O)Cc1cccs1)[C@@H]23)N1CCOCC1 the results were hNpr1 antagonist 0%.
For CC(C)Cc1cc(C(=O)N2CCC(n3cc(-c4ccccn4)nn3)CC2)on1 the results were hNpr1 antagonist -19%.
For CCOCc1nc(C2CCCN(C(=O)C3CCCCC3)C2)no1 (configuration not stated) the results were hNpr1 antagonist -19%.
Screening CN(C)C(=O)NC1CCN(c2nc3ncccc3o2)CC1 returned hNpr1 antagonist 5%[70.6 µM].
Cc1ccc(N2CC(c3noc(-c4ccc5ccccc5n4)n3)CC2=O)cc1 (configuration not stated) was read as hNpr1 antagonist 0%.

By substructure: the entries above with a COOH group.
Cc1ccccc1[C@H]1[C@@H](C(=O)N(C)Cc2cccnc2)C[C@@](C)(C(=O)O)N1C was read as hNpr1 antagonist 0%.
Screening Cc1cccnc1CNC(=O)[C@H]1C[C@@H](C(=O)O)N(C)[C@H]1c1cccc(Cl)c1 returned hNpr1 antagonist -4%.
Screening CC(=O)N1CC2(CCN(Cc3ncccn3)CC2)CC1C(=O)O (configuration not stated) returned hNpr1 antagonist 2%.
For COc1ccc(-c2noc([C@@H](C)NC(=O)c3ccc4c(c3)OCO4)c2C(=O)O)cc1 the results were hNpr1 antagonist -1%[70.6 µM].
Screening C[C@@H](NS(C)(=O)=O)c1onc(-c2ccccc2)c1C(=O)O returned hNpr1 antagonist 0%[70.6 µM].

High-throughput results from PubChem BioAssay.

This is a subset. The share of hits here may be higher or lower than overall.
